KCNQ2 pot = KCNQ2 (rat) channel potentiation. B-score at 10 µM. 310,000 compounds, 0.54% hits. CHO-K1 KCNQ2, FluxOR thallium flux fluorescence; active compounds read high. AID 2239. O88943;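 active = fluorescence ratio B-score at least 3 SD of library B-scores, with initial fluorescence B-score within 3 SD, cut at about 5.3 in these data; same plate scores as AID 2156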;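 also: B-score of peak minus minimum over baseline fluorescence ratio after K+ and Tl+ stimulus; positive B-score means potentiation of KCNQ2 with more thallium influx and brighter signal; only the inactives scoring about 0 or higher are listed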
Target sequence (O88943 whole entry, looked up): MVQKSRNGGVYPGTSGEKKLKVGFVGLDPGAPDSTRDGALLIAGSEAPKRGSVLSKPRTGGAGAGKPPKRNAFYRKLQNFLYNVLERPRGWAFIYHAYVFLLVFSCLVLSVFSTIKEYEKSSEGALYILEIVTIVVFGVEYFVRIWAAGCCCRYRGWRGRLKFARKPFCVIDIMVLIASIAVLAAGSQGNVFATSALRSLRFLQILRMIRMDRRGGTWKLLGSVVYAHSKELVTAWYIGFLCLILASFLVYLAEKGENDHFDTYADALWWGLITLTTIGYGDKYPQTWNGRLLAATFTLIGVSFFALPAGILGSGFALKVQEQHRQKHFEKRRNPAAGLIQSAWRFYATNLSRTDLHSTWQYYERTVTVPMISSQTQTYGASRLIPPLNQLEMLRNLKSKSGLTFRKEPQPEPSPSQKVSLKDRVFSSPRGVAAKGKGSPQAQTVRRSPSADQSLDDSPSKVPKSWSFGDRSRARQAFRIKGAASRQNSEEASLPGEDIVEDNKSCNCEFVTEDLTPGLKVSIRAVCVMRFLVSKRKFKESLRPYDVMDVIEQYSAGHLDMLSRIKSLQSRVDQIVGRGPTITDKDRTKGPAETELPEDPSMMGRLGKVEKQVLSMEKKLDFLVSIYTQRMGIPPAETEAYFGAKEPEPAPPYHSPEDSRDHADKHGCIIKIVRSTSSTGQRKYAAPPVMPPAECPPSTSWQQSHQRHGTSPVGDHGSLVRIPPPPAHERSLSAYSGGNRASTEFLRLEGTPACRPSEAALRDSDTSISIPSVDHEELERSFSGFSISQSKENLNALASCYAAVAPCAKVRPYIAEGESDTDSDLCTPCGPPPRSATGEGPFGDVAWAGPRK
KCNQ2 pot baseline = recorded beside KCNQ2 pot, whose call it bears; B-score; compound at 10 µM; measured here: initial fluorescence intensity artifact check;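 brightness before thallium and not channel activity; 0 = typical well and far values either way flag optical interference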
The depositor's hits bear a star.

SMILES	KCNQ2 pot	KCNQ2 pot baseline
C=CCNC(=O)COc1ccc(Oc2ccccc2)cc1	1.63	0
CCOC(=O)C1CCCN(C/C=C/c2ccccc2)C1 (stereo not given)	0.06	0.05
Cc1ccc(C(=O)NCC(=O)OCC(=O)c2ccc(C)c([N+](=O)[O-])c2)cc1	0.11	-0.36
Cc1csc(NC(=O)c2ccc(C)s2)n1	1.54	-0.85
COc1ccc(CNC(=O)CCCn2nc(C)n3ccnc3c2=O)cc1	0.3	0.02
Cc1ccc(N2C(=O)c3ccc(C(=O)N4CCN(Cc5ccccc5)CC4)cc3C2=O)cc1	0.54	0.13
Cc1ccc2cccc(NC(=S)NC(=O)c3ccnn3C)c2n1	1.61	0.55
O[C@@H]1CN(Cc2ccc(-n3cccn3)cc2)CC[C@H]1N1CCN(c2ccccc2F)CC1	0.15	0.8
C#CC[N+]1(CC#Cc2ccc(C)cc2)CCCCC1	0.14	0.16
CCN1CCN(C(=O)c2cc(COc3ccc(F)cc3F)on2)[C@@H](C)C1=O	1.5	0.5
CCN(Cc1ccc(C#CCCO)cc1)CC1CCCN(CCc2cccc(OC)c2)C1 (stereo not given)	1.78	0.39
CCS(=O)(=O)N1CCC(C(=O)NCc2ccco2)CC1	0.7	-2.51
O=C(CNC(=O)c1cccc(Br)c1)N/N=C/c1cccnc1	1.41	-2.49
Cn1c(=O)n(C)c2cc(S(=O)(=O)Nc3ccccc3C(=O)O)ccc21	0.08	-1.51
CCOC(=O)N1CCN(S(=O)(=O)c2ccc3[nH]c(=O)sc3c2)CC1	0.21	-1.63
CC1CCN(C2CCN(S(=O)(=O)c3ccc(F)cc3)CC2)CC1	1.16	0.47
O=C(CNS(=O)(=O)c1ccc([N+](=O)[O-])cc1)N/N=C/c1ccc(O)cc1O	1.29	0.21
COc1cc2c(cc1O)CC[n+]1cc3c(OC)c(OC)ccc3cc1-2	0.21	-0.05
Cc1ccc(-c2nc(C)sc2CC(=O)OCC(=O)Nc2c(F)cccc2F)cc1	0.06	-1.33
CCc1ccc(NC(=O)c2cnn3ccccc23)cc1	1.31	0.02
COc1ccc(C(=O)CN2C(=O)NC3(CCCCCC3)C2=O)cc1	1.75	0.35
CCCCCc1nc2c(C#N)c(-c3ccc(Cl)cc3)ccn2n1	0.18	-0.04
CC(C)c1nc(SCC(=O)N2CCCC2)c2c(=O)n(C)c(=O)n(C)c2n1	3.79	-0.77
O=C(CSc1nnnn1-c1ccc(O)cc1)Nc1cccc(S(=O)(=O)N2CCCC2)c1	2.14	0.03
CCOc1ccc(/C=N/NC(=S)Nc2c(C)cccc2C)cc1	1.15	1.96
COc1ccc(OC)c(NC(=O)C2CCCN(S(=O)(=O)c3c(C)noc3C)C2)c1 (stereo not given)	0.74	-0.8
O=C(COC(=O)COc1cccc(C(F)(F)F)c1)NC1CCS(=O)(=O)C1 (stereo not given)	0.38	-0.02
O=C1C(C2=NC(c3ccccn3)C3C(=O)N(c4ccc(Cl)cc4Cl)C(=O)C23)=C(O)c2ccccc21 (stereo not given)	1.49	1.54
O=C(c1ccc(-n2nc(C(F)(F)F)c3c2CCCC3)cc1)N1CCOCC1	0.88	-0.15
CCCCCCCc1nn2c(=O)cc(O)nc2s1	1.12	-1.12
CCCCCn1c(=NC(C)=O)c(C#N)cc2c(=O)n3ccccc3nc21	2.49	1.3
COc1cccc(CNCc2ccc(OC)cc2OC)c1	0.04	-0.07
CC(C)(C)NC1=CC(=O)OC12CCCCC2	0.15	-0.73
O=C(Oc1ccc(F)cc1)N1CCOCC1	0.56	1.23
COc1ccc(NC(=O)Nc2nnc(CC(=O)NCc3ccccc3)s2)cc1	0.57	0.2
COc1cccc(N2CC(C)Cn3c2nc2c3c(=O)n(CCN3CCOCC3)c(=O)n2C)c1 (stereo not given)	1.42	-0.79
CCN(CC)S(=O)(=O)c1ccc(C)c(NC(=O)COC(=O)CN2C(=O)NC(C)(C)C2=O)c1	2.46	-0.08
CC(=O)Nc1ccccc1OCC(=O)N(Cc1ccccc1)C(C)C	0.35	-0.69
NS(=O)(=O)c1ccc(-c2ccc(/C=N/NC(=O)c3ccccc3O)o2)cc1	0.08	-0.88
C/C(=N/NC(=O)CN1CCN(Cc2ccccc2Cl)CC1)c1cccs1	1.74	0.05

Quoted from the listing:
C/C(=N/NC(=O)CN1CCN(Cc2ccccc2Cl)CC1)c1cccs1 – KCNQ2 pot baseline: 0.05
COc1cccc(N2CC(C)Cn3c2nc2c3c(=O)n(CCN3CCOCC3)c(=O)n2C)c1 (stereo not given) – KCNQ2 pot baseline: -0.79
COc1ccc(NC(=O)Nc2nnc(CC(=O)NCc3ccccc3)s2)cc1 – KCNQ2 pot: 0.57
COc1cccc(CNCc2ccc(OC)cc2OC)c1 – KCNQ2 pot: 0.04
O=C1C(C2=NC(c3ccccn3)C3C(=O)N(c4ccc(Cl)cc4Cl)C(=O)C23)=C(O)c2ccccc21 (stereo not given) – KCNQ2 pot: 1.49

Back to the main list, repeating the four entries before the break.
SMILES	KCNQ2 pot	KCNQ2 pot baseline
CCN(CC)S(=O)(=O)c1ccc(C)c(NC(=O)COC(=O)CN2C(=O)NC(C)(C)C2=O)c1	2.46	-0.08
CC(=O)Nc1ccccc1OCC(=O)N(Cc1ccccc1)C(C)C	0.35	-0.69
NS(=O)(=O)c1ccc(-c2ccc(/C=N/NC(=O)c3ccccc3O)o2)cc1	0.08	-0.88
C/C(=N/NC(=O)CN1CCN(Cc2ccccc2Cl)CC1)c1cccs1	1.74	0.05
COc1cc(/C=N/NC(=O)C(Cc2c[nH]c3ccccc23)NC(=O)OCC(C)C)cc([N+](=O)[O-])c1OCc1ccccc1 (stereo not given)	0.71	0.88
COc1ccc(OC)c(/C=N/NC(=O)c2[nH]ncc2Br)c1	0.17	2.24
Cc1cccnc1NC(=O)c1ccc(S(=O)(=O)N2CCCCCC2)cc1	0.08	0.09
CCN(CC)CCNC(=O)Cn1c(C)cc2ccccc2c1=O	1.25	-1.1
O=C(CN1CCc2ccccc2C1)NC1CCCC1	0.83	0.06
O=C1CC(c2ccccc2)CC2=C1C(c1ccccn1)Nc1ccccc1N2 (stereo not given)	0.55	0.03
COCCCNC(=O)c1cc(Sc2nnc(C)s2)nc2ccccc12	0.59	-1.86
COc1ccccc1CNS(=O)(=O)c1ccc(-n2cccn2)cc1	0.48	-1.5
COc1cc(/C=C(\C#N)C(=O)NCC2CCCO2)cc(OC)c1OC (stereo not given)	0.49	0.66
C=CCn1c(SCC(=O)N2CCCCC2)nnc1-c1ccncc1	2.02	-1.38
Cc1ccc(CN2CC(C(=O)N(Cc3nnc(-c4ccccc4Cl)o3)C3CC3)CC2=O)cc1 (stereo not given)	0.95	0.81
CC(=O)Nc1ccc(S(=O)(=O)NC2Cc3ccccc3C2)cc1	0.86	-1.36
O=C(N/N=C/c1cn(CC(=O)N2CCOCC2)c2ccccc12)c1cccnc1	0.58	-0.22
Nc1ccc(S(=O)(=O)c2ccc(N)cc2)cc1	0.36	-0.22
CCC(=O)N1CCc2cc(Br)cc(S(=O)(=O)N3CCCCC3CC)c21 (stereo not given)	0.96	1.5
CCC(=O)Nc1cccc(-c2cn3ccsc3n2)c1	0.02	0.63
CCOc1ccc(/C=C2\CCC(C3CCCC3)C2=O)cc1OC (stereo not given)	0.88	-0.08
CS(=O)(=O)N1CCc2cc(C(=O)N3CCCCC3)ccc21	0.05	-1.05
COc1cccc(N(CC(=O)NCc2ccco2)C(=O)CCC(=O)Nc2nccs2)c1	0.38	0.93
Cc1ccc(S(=O)(=O)NCC(=O)N(CC(=O)NC(C)(C)C)Cc2ccc3c(c2)OCO3)cc1	2.43	-0.86
CC(=O)N(c1ccc(Cl)cc1)c1nc(C)cc(C)c1C#N	0.85	0.11
CCOc1ccccc1NC(=O)CN1CCC(NC(=O)c2ccccc2C)CC1	1.01	0.59
Oc1[nH]c2ccccc2c1N=NC(=S)NCC1CCCO1 (stereo not given)	0.45	1.57
CCc1nnc(NC(=O)Cc2c[nH]c3ccccc23)s1	0.18	0.2
Cc1nnc(SCC(=O)c2c(N)n(C)c(=O)n(C)c2=O)[nH]c1=O	0.48	-1.21
CNC(=O)c1ccc(=O)n(Cc2cccc(C(F)(F)F)c2)c1	0.81	0.03
O=C(CN(Cc1ccc(Cl)c(Cl)c1)S(=O)(=O)c1ccccc1)N/N=C\c1ccc2c(c1)OCO2	2.33	-0.11
Cc1c(C)c2cc(Cl)c(O)c(CN3CCCCC3)c2oc1=O	0.03	-2.35
Cc1ccc(S(=O)(=O)N2CCC(C(=O)OCC(=O)N3CCC(C)CC3)CC2)cc1C	0.18	2.29
CCc1nnc(NC(=O)c2ccc(F)c(S(=O)(=O)N3CCCCC3)c2)s1	0.04	0.16
O=C(Cn1cnc2c(oc3ccccc32)c1=O)N1CCN(c2ccccc2)CC1	1.11	-1.49
CC(C)Cc1nc2sc3c(c2c(=O)n1N)CC(C(C)C)OC3 (stereo not given)	0.21	-2.12
Cc1nn2c3ccccc3n(Cc3ccccc3)c2nc1=O	0.3	-0.68
N#Cc1c(N2CCCC2)ccc(Br)c1Cl	0.01	-0.6
COc1ccc(/C=C2/S/C(=N/S(=O)(=O)Cc3ccccc3)NC2=O)cc1OC	0.02	0.76
CCc1noc(C)c1C(=O)N(C)CC(=O)Nc1ccc(Br)cc1C	0.12	1.64
CC(=O)N1CCN(c2ccc(NC(=O)c3cccc(C)c3)cc2)CC1	0.75	0.84
O=C(Cn1cc(C(F)(F)F)ccc1=O)N/N=C/c1cccc(Cl)c1Cl	0.06	-0.27
COc1ccc(NC(=O)Cc2c[nH]c3ccccc23)cc1S(=O)(=O)N1CCCCC1	1.07	-0.2
CC(=O)N1C(=O)c2cccc3cccc(c23)C(=O)N1C(C)=O	0.13	0.18
Cc1cc(C(=O)COC(=O)CNC(=O)c2ccccc2)c(C)n1CC1CCCO1 (stereo not given)	0.01	0.72
C=C1CCN([C@H](C(=O)NCc2ccc(Cl)c(Cl)c2)C(C)C)S(=O)(=O)c2ccccc21	1.31	1.25
CN(C(=O)c1c[nH]c(=O)cc1C(F)(F)F)c1ccc(Cl)cc1	0.53	-0.53
CC(=O)N1c2ccc(S(=O)(=O)NCC3CCC(C(=O)NCc4ccccc4)CC3)cc2CC1C (stereo not given)	0.03	0.16
COc1cccc(NC(=O)Nc2cccnc2)c1	0.35	-2.96
N#Cc1ccsc1NC(=O)CSc1nnc(-c2ccccc2)o1	0.24	0.49
COc1cc2ccccc2cc1C(=O)Nc1nc(C)c(C(C)=O)s1	0.48	1.05
CC(C)Cc1nc2oc3c(=O)[nH]cnc3c2c2c1CCCC2	0.44	1.76
CCOC(=O)c1cc(NC(=O)c2ccccc2)c(=O)n2c1oc1ccccc12	1.21	0.87
Cc1nn(Cc2c(F)c(F)c(F)c(F)c2F)c(C)c1NC(=O)c1ccc(COc2ccc(F)cc2)o1	0.04	1.6
NNC(=O)c1csc(Cc2c(Cl)sc3ccc(Cl)cc23)n1	1.47	-0.29
CC(C)NC(=O)c1cccc2c1-c1ccccc1C2=O	0.04	0.26
c1ccc(-c2cn3cccnc3n2)cc1	0.68	-1.64
Cc1nc2ccc(NC(=O)N3CCCCC3)cc2nc1C	0.81	0.04
CC1(c2ccccc2)NC(=O)N(CC(=O)Nc2ccc(N3CCOCC3)cc2N2CCOCC2)C1=O (stereo not given)	0.12	-1.69
COC(=O)Nc1ccccc1C(=O)N1CCC(O)(c2ccc(Cl)cc2)CC1	0.07	0.05
COc1cc(-c2nc3n(n2)C(c2ccncc2)C(C(N)=O)=C(C)N3)cc(OC)c1OC (stereo not given)	0.63	-2.62
Cc1ccc(S(=O)(=O)N2CCN(C(=O)CNC(=O)c3sc4ccccc4c3Cl)CC2)cc1	0.52	1.24
COc1ccc(OC(C)C(=O)N2CCN(c3ccccn3)CC2)cc1 (stereo not given)	0.77	1.88
O=C(Cc1ccc2c(c1)CCCC2)Nc1ccccc1Cl	0.61	1.43

(continued)
SMILES	KCNQ2 pot	KCNQ2 pot baseline
CCOc1ccc(Nc2nc(N)nc(CCl)n2)cc1	0.03	-0.86
Cc1ccc2ncc(NC(=O)c3ccc(F)cc3)c(=O)n2c1	0.8	0.06
C[n+]1ccc(/C=C/c2cccs2)cc1	0.41	-0.06
CCCCS(=O)(=O)NC1=NCN(Cc2ccco2)CN1	1.3	-0.19
Cc1cccc(NC(=O)c2cn(-c3ccccc3)nc2-c2ccccc2)c1	1.63	0.25
COCCNS(=O)(=O)c1ccc(F)c(OC)c1	1.06	0.41
Cc1cc(C)n(C(CC(=O)N2CCc3ccccc3C2)C(=O)O)n1 (stereo not given)	1.62	-1.03
CCC1Nc2ncnc(N3CCCCC3)c2N(Cc2ccc(Br)cc2)C1=O (stereo not given)	1.47	-1.81
Cc1ccc(N=Nc2c(N)[nH]n3c(=O)cc(-c4ccccc4)nc23)cc1	4.35	-0.56
O=C(Nc1ccc(Oc2cccnc2)cc1)c1ccccc1F	0.96	0.44
Cc1ccc(/C=N/n2c(-c3ccc(Cl)cc3)n[nH]c2=S)o1	0.02	1.95
COC(=O)C1=C(C)Nc2c(c(=O)n(C)c(=O)n2C)C1c1ccc(Cl)cc1 (stereo not given)	1.45	0.41
COc1cccc(NC(=S)N2CCN(Cc3ccccc3)CC2)c1	0.77	-0.02
Cc1ccc(-c2csc(NC(=O)COc3ccc(N(C)S(=O)(=O)c4ccc(C)cc4)cc3)n2)cc1	0.69	0.01
Cc1nc2ncnn2c(C)c1CCC(=O)NC(C)CCc1ccco1 (stereo not given)	0.36	1.93
N#C/C(=C(/O)COC(=O)c1ccccc1O)c1nc2ccccc2s1	0.59	-0.59
CCCN1CCN(CCCNC(=O)c2ccc(CS(=O)c3ccccc3C)o2)CC1 (stereo not given)	0.01	0.13
O=C(CSc1nnnn1-c1ccc(F)cc1)NC1CCCCC1	2.25	-1.14

A stretch from the list above:
SMILES	KCNQ2 pot	KCNQ2 pot baseline
CCOc1ccc(Nc2nc(N)nc(CCl)n2)cc1	0.03	-0.86
Cc1ccc2ncc(NC(=O)c3ccc(F)cc3)c(=O)n2c1	0.8	0.06
C[n+]1ccc(/C=C/c2cccs2)cc1	0.41	-0.06

The list is partial (hit frequency here may not be typical).
